Screens: PubChem, PCMD
Biofilm kill mix – clotrimazole potentiators killing C. albicans biofilm, primary screen, 4-compound mixtures. inhibition, % at 7.6 µM. actives 0.02% (n = 120,000). AID 1242, 2008. C. albicans biofilm persisters + clotrimazole, fluorescence viability; primary screen in compound mixtures of four per well;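 active = inhibition above 30.3% in the primary screen of four-compound pools, then above 30% when the compound was retested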;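 also: compounds exposed to preformed 24 h biofilms for 48 h; the number belongs to the whole pool; some results filed as inactive read as strong as hits; inactives centre near 12; 0% = biofilm with clotrimazole alone and 100% = kill control; retested singly at about 60 µM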
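Test system: C. albicans CAF4-2 wild-type biofilms; buffer or medium: RPMI/MOPS medium, pH 7.0; schedule: 24 h biofilm formation, then 48 h compound exposure, 37 °C; detection: Alamar Blue fluorescence; measure: percent inhibition of biofilm viability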
* hit, by the source's call. Only part of the results is shown, so the mix of outcomes need not match the whole.

For CN(C(=O)c1ccc(OC2CCN(CCc3ccccc3)CC2)cc1)C1CCOCC1 the results were Biofilm kill mix 10.0.
For CN=C(Nc1ccc(Br)cc1)SC1CC(=O)N(c2ccc(OC)cc2)C1=O (stereo unspecified) the results were Biofilm kill mix 9.9.
For CC(C)CNc1ncnc2c1cnn2Cc1ccc(Cl)cc1 the results were Biofilm kill mix 17.5.
CCCNC(=O)c1cccc(NC(=O)C(C)C)c1 was read as Biofilm kill mix 0.3.
COc1ccc(NC2=C(c3ccc(OC)cc3)C(=O)c3ccccc32)cc1 was read as Biofilm kill mix 9.5.
COc1cc2nc(CN3CCC(C(O)(c4ccccc4)c4ccccc4)CC3)[nH]c(=O)c2cc1OC was read as Biofilm kill mix 6.6.
`CCCC1Nc2ccc(C(=O)O)cc2C2C=CCC12` (stereo unspecified) gave Biofilm kill mix -1.3.
`COc1ccc(/C=C/C(=O)N(c2ccccn2)C2CCCCC2)cc1OC` gave Biofilm kill mix 9.6.
Screening CC(=O)c1cc2c(cc1NC(=O)c1ccccc1C)OCO2 returned Biofilm kill mix 7.6.
Screening O=C(NC(=S)NNC(=O)c1ccccc1O)c1cccnc1 returned Biofilm kill mix 14.8.
`O=C(c1cc(F)cc2c1OCOC2)N1CCN(c2ccc(F)cc2)CC1` gave Biofilm kill mix 25.7.
For Cc1ccccc1OCC(=O)NNC(=O)CSc1nc(N)cc(N)n1 the results were Biofilm kill mix 17.0.
COc1ccc(C2CC(=O)C3=C(C2)Nc2ccccc2N(C(=O)CCC(=O)O)C3c2ccc(F)cc2)cc1OC (stereo unspecified) was read as Biofilm kill mix 2.9.
Cc1ccc(S(=O)(=O)Nc2ccc(NC(=O)Nc3ccc(F)cc3F)cc2)cc1 was read as Biofilm kill mix 8.1.
Screening O=S(=O)(NCCN1CCOCC1)c1ccc2c(c1)OCCO2 returned Biofilm kill mix 26.4.
Screening CC12CCC(C(=O)N(CCCCN3CCN(Cc4ccccc4)CC3)C1=O)C2(C)C (stereo unspecified) returned Biofilm kill mix 15.9.
COc1ccc(Cc2nc3ccccc3[nH]2)cc1OC was read as Biofilm kill mix 11.4.
For COc1ccc(/C=N/n2c(-c3n[nH]c4c3CCC4)n[nH]c2=S)cc1OC the results were Biofilm kill mix 4.2.
N#C/C(=C\c1ccccc1OCc1ccc(C(=O)O)cc1)c1ccccc1 was read as Biofilm kill mix -8.2.
Screening Cc1cc(C)cc(Oc2nc3ccccn3c(=O)c2/C=C(\C#N)C(=O)NC2CCS(=O)(=O)C2)c1 (stereo unspecified) returned Biofilm kill mix 7.1.
`CCOc1cc(NS(=O)(=O)c2ccc(NC(C)=O)cc2)c(OCC)cc1NC(=O)c1cccs1` gave Biofilm kill mix 19.3.
COc1ccc(C(=O)NC(=S)Nc2ccc(N3CCN(C(C)=O)CC3)cc2)cc1[N+](=O)[O-] was read as Biofilm kill mix 19.3.
CCC(=O)N1CCCn2c1nc1ccccc12 was read as Biofilm kill mix 12.8.
`Cc1cccc(-c2nc(CSc3nc4c(c(=O)[nH]3)CCC4)c(C)o2)c1` gave Biofilm kill mix 16.0.
For CCC(C)NC(=S)Nc1ccccc1 (stereo unspecified) the results were Biofilm kill mix 18.4.
`O=C(Nc1ccccc1CC[N+](=O)[O-])N1CCN(c2ccccc2)CC1` gave Biofilm kill mix 16.7.
For COC(=O)[C@@H](NC(=O)O[C@@H]1C(=O)c2cc(Br)ccc2O[C@H]1c1cccc(OC)c1)C(C)C the results were Biofilm kill mix 3.7.
Cc1ccc(/C=[N+](/C)[O-])cc1 was read as Biofilm kill mix 4.0.
`CC(OC(=O)C1CCCCC1)c1nc2ccccc2[nH]1` (stereo unspecified) gave Biofilm kill mix 12.1.
Cn1c(SCc2ccc(Cl)cc2)nnc1-c1ccc2nonc2c1 was read as Biofilm kill mix 26.5.
`CC[n+]1ccc(/C=C2\Sc3ccccc3N2CCCS(=O)(=O)[O-])c2ccccc21` gave Biofilm kill mix 24.4.
`O=C(NCC(=O)N(Cc1ccccc1)C(C(=O)NC1CCCC1)c1ccncc1)c1ccco1` (stereo unspecified) gave Biofilm kill mix 13.3.
Screening Cc1cc(-c2ccc(Br)s2)nc(-n2cccc2)n1 returned Biofilm kill mix -8.5.
For COc1c(C)cc(Br)cc1C(=O)Nc1ccccc1N1CCN(C(=O)c2ccccc2)CC1 the results were Biofilm kill mix 16.2.
For Cc1ccc(S(=O)(=O)/N=C(\Nc2cccc(C)c2)Nc2nc(C)cc(C)n2)cc1 the results were Biofilm kill mix 15.1.
CCN1CCN(C(=S)Nc2ccc3nc(N4CCN(CC)CC4)cc(C)c3c2)CC1 was read as Biofilm kill mix 9.2.
For CCc1ccccc1NC(=S)N(CCCN1CCOCC1)Cc1ccccn1 the results were Biofilm kill mix 12.3.
`CCOC(=O)c1c(NC(C)=O)sc2c(OCCN(CC)CC)c(Br)ccc12` gave Biofilm kill mix 12.3.
O=c1cc(CSc2ccc(Cl)cc2)nc(-c2ccncc2)[nH]1 was read as Biofilm kill mix 2.5.
For S=C1SCN(Cc2ccco2)CN1Cc1ccco1 the results were Biofilm kill mix 19.6.
`O=C1C2CSCN2C(=O)CN1CCCN1CCN(C(c2ccccc2)c2ccccc2)CC1` (stereo unspecified) gave Biofilm kill mix 21.8.
Screening Cc1ccc(Cl)cc1N=C(N)N=C(N)N returned Biofilm kill mix 23.3.
Screening CC(C(=O)N1CCOCC1)c1ccc([N+](=O)[O-])cc1 (stereo unspecified) returned Biofilm kill mix 8.3.
`c1ccc(COc2cccc(CNCc3cccnc3)c2)cc1` gave Biofilm kill mix 15.7.
Screening COc1cccc(NC(=O)Nc2ccc(C)c(Cl)c2)c1 returned Biofilm kill mix 10.0.
For CN(C)/C=C/C(=O)c1c(F)cccc1F the results were Biofilm kill mix 20.7.
COc1ccc(CCC(=O)Nc2cc(S(C)(=O)=O)ccc2Cl)cc1 was read as Biofilm kill mix 12.7.
Screening CC(C)C(=O)NC(=S)Nc1ccc(S(=O)(=O)N2CCCC2)cc1 returned Biofilm kill mix 14.3.
`CC(CCc1ccccc1)NC(=O)c1nnc(Cc2ccc(F)cc2)o1` (stereo unspecified) gave Biofilm kill mix 13.8.
CC(O)[C@H]1CNC(=O)C(=O)N1CCc1cccc2ccccc12 (stereo partly specified) was read as Biofilm kill mix 7.5.
Screening CC(CCc1ccccc1)NC(=O)Cc1ccc([N+](=O)[O-])cc1 (stereo unspecified) returned Biofilm kill mix 14.8.
COc1ccccc1C1C([N+](=O)[O-])=CC([N+](=O)[O-])=CN1C (stereo unspecified) was read as Biofilm kill mix 1.1.
COc1ccc(-c2[nH]ncc2CN2CCCC(C(=O)c3ccc(OC)cc3OC)C2)cc1 (stereo unspecified) was read as Biofilm kill mix 7.2.
Screening O=C(CN1CCOCC1)Nc1ccc2c(c1)OCO2 returned Biofilm kill mix 15.4.
`COc1cc(OC)cc(C(=O)Nn2cnnc2)c1` gave Biofilm kill mix 21.8.
Fc1ccc(COc2ccc3ccccc3c2CNc2nn[nH]n2)cc1 was read as Biofilm kill mix 3.5.
For COc1ccc(C(=O)N/C(=C\c2cccc([N+](=O)[O-])c2)C(=O)Nc2cccc(C(=O)O)c2)cc1 the results were Biofilm kill mix 16.3.
For CCOC(=O)C(C)N1C(=O)S/C(=C/c2cc(C)n(-c3ccncc3)c2C)C1=O (stereo unspecified) the results were Biofilm kill mix 5.0.
For CN(Cc1ccc(F)cc1)Cc1nc(-c2cnccn2)no1 the results were Biofilm kill mix 4.3.
Screening CN(C)CCNC(=O)C(=O)c1c(-c2ccccc2)cc2ccccn12 returned Biofilm kill mix 14.2.
For CCCCOC(=O)Nc1nnc(SCCOc2ccc(C)cc2)s1 the results were Biofilm kill mix 3.5.
For Clc1ccc2nc(N3CCCCC3)sc2c1 the results were Biofilm kill mix 5.4.
`CC1CN(CCOCCSc2ccccc2)CC(C)O1` (stereo unspecified) gave Biofilm kill mix 15.7.
Cc1ccc(NC(=O)C(C)c2cccc(C(=O)c3ccccc3)c2)cc1O (stereo unspecified) was read as Biofilm kill mix 14.2.
`COc1ccc(S(=O)(=O)N(C)C)cc1NC(C)C(=O)Nc1cccc(C#N)c1` (stereo unspecified) gave Biofilm kill mix 10.3.
`Cc1cc(C)cc(NC(=O)C(OC(=O)c2ccc([N+](=O)[O-])o2)c2ccccc2)c1` (stereo unspecified) gave Biofilm kill mix 18.1.
For COc1ccccc1N1CCN(C(=S)NC(=O)/C=C/c2ccc(F)cc2)CC1 the results were Biofilm kill mix 28.9.
Screening CCOC(=O)C1=C(CP(=O)(c2ccccc2)c2ccccc2)NC(=O)NC1c1ccc(OC)cc1 (stereo unspecified) returned Biofilm kill mix 14.4.
`COc1ccc(-c2ccc([C@H]3[C@H]4C=CC[C@@H](C)[C@@H]4C(=O)N3Cc3ccccc3)c(F)c2)cc1` gave Biofilm kill mix 16.0.
CN1CCc2nc(NC(=O)COc3ccc4ccccc4c3)sc2C1 was read as Biofilm kill mix 12.9.
CC(=O)Nc1cccc(Oc2ncccc2[N+](=O)[O-])c1 was read as Biofilm kill mix 20.9.
Cc1nc2cc(C(F)(F)F)ccc2n1C1CCN(CC(=O)N2CCCC2)CC1 was read as Biofilm kill mix 25.1.
`N#C/C(=C\c1cccc(O)c1)C(=O)Nc1ccc2c(c1)OCCO2` gave Biofilm kill mix 2.7.
For O=C(Nc1cccc(C(=O)O)c1)/C(=C\c1ccc2c(c1)OCO2)NC(=O)c1ccccc1 the results were Biofilm kill mix -0.6.
Screening COc1ccc(OCCCC(=O)Nc2nc(C)c(C(C)=O)s2)cc1 returned Biofilm kill mix 23.6.
For N#C/C(=C\c1ccc(O)cc1)c1nc2ccccc2o1 the results were Biofilm kill mix 31.0.
`O=C(NCCOCc1ccc(Cl)cc1)c1ncn[nH]1` gave Biofilm kill mix 12.4.
Screening CCCC/C(C)=N/NC(=O)NC1CCCCC1 returned Biofilm kill mix 26.3.
`Cc1cc(C)cc(NC(=O)CN2CCN(CCN=CC3=C(O)CC(c4ccc(Cl)cc4)CC3=O)CC2)c1` (stereo unspecified) gave Biofilm kill mix 17.5.
`CS(=O)(=O)N(CC(=O)Nc1ccccc1-c1ccccc1)c1cccc(F)c1` gave Biofilm kill mix 11.6.
`NS(=O)(=O)c1cccc(NC(=S)NCc2ccc3c(c2)OCO3)c1` gave Biofilm kill mix 13.6.
`O=C(NN=C1CCCCCC1)c1c[nH]c2ccccc12` gave Biofilm kill mix 21.8.
Screening O=C(CSCc1c(Cl)cccc1Cl)NCc1ccco1 returned Biofilm kill mix 11.5.
For O=c1cc(O)c(-c2ccc(Cl)cc2)c(Cl)[nH]1 the results were Biofilm kill mix -1.2.
`O=C1c2cc(F)ccc2OC2(CCNCC2)C12CC(c1ccccc1)=NO2` (stereo unspecified) gave Biofilm kill mix 10.9.
`COc1cc(/C=C2\SC(=O)NC2=O)ccc1Oc1ccc([N+](=O)[O-])cc1[N+](=O)[O-]` gave Biofilm kill mix 4.8.
For Cc1ccc(Nc2cc(C)c3c(O)cccc3n2)cc1C the results were Biofilm kill mix -32.5.
COc1cc(OC)cc(-c2ncc3ccccn23)c1 was read as Biofilm kill mix 9.6.
`Nc1ccc(Sc2ccc([N+](=O)[O-])cc2)cc1` gave Biofilm kill mix 19.3.
`O=C(NCCc1ccccn1)c1cccnc1Oc1ccc(Cl)cc1` gave Biofilm kill mix 21.4.
Screening CCOC(=O)C1CCN(C(=O)c2sc3nc(C)nc(N4CCC(C)CC4)c3c2C)CC1 returned Biofilm kill mix -9.0.
Screening Cc1cccc(N(Cc2cc3ccccc3[nH]c2=O)S(C)(=O)=O)c1 returned Biofilm kill mix 3.9.
COc1ccc(Cn2c(S(=O)(=O)CC(N)=O)nc3ccccc32)cc1[N+](=O)[O-] was read as Biofilm kill mix 12.1.
COCCCN=C1NN=C(c2cc(C)n(-c3ccccc3)c2C)CS1 was read as Biofilm kill mix 13.0.
Screening O=C(c1ccc(CNc2c(N3CCCC3)c(=O)c2=O)cc1)N1CC=C(c2ccccc2)CC1 returned Biofilm kill mix 21.8.
Screening O=C(CSc1ccc2nnc(-c3ccccn3)n2n1)Nc1nccs1 returned Biofilm kill mix 16.5.
For CN(C)C(=S)N=Nc1[nH]c2ccccc2c1O the results were Biofilm kill mix 17.8.
Nc1nc(O)c(CC(=O)O)s1 was read as Biofilm kill mix 21.6.
Screening COc1ccc(CN2CCNC(=O)C2CC(=O)NCc2cn3ccc(C)cc3n2)c(OC)c1 (stereo unspecified) returned Biofilm kill mix 9.4.
For CN(Cc1ccccc1)C(=O)COC(=O)/C=C/c1ccco1 the results were Biofilm kill mix 9.0.
For O=C(/C=C/c1ccncc1)c1ccc2c(c1)OCCO2 the results were Biofilm kill mix 25.6.
Cn1c(C2CCCCC2)nc2c1c(=O)[nH]c(=O)n2Cc1ccccc1 was read as Biofilm kill mix 6.0.
`Cc1cc(C)c2nc(NC(=O)c3cccc(S(=O)(=O)N4CCc5ccccc54)c3)sc2c1` gave Biofilm kill mix 14.7.
